A1 inh: inhibitors of the anti-apoptotic protein A1, read as caspase activation; MEF A1-2A-BIM cells, Caspase-Glo 3/7 luminescence, 3 h; percent of clofoctol response, vehicle zero; actives 0.066% (n = 330,000); AID 2462; caspase activation, % (no concentration beside the values);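 active means over half of replicate activation scores above 10%, or exactly half above 10 with the replicate mean above 10; inconclusive means replicate mean below 10 yet half the replicates above 10; inactive means over half of replicates below 10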;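 further: wells of about 30 µL received 50 nL stock; many hits fall short of the cut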
RanGTP-Imp inh: disruptors of Ran-importin-beta complex formation – biochemical, FRET, CFP-Ran, YFP-importin-beta, homogeneous, primary screen. cell-free CFP-Ran/YFP-importin-beta FRET ratio. inhibition, % (concentration not given with the values). actives 1.1% (n = 300,000). AID 2216;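 active means most replicates above 15%; inconclusive means exactly half above 15%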;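 further: 0% = DMSO wells and 100% = Ran loaded with GDP instead of GTP; wells of about 40 µL received 100 nL stock; the first replicate is given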
AF4-AF9 inh: blocks AF4 peptide binding to human AF9; P42568; AlphaScreen, biotin-AF4 peptide binding to FLAG-AF9; inhibition, % at 10 µM; actives 0.47% (n = 350,000); AID 651704;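 active means every replicate reaching a set inhibition limit, whatever the replicate mean, cut at about 25% in these data; inconclusive means mean inhibition reaches that limit but some replicates miss it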;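 further: 0% = plate neutral control median and 100% = total signal loss; the record names both 10 and 1 µM as test concentration; the first replicate is given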
Target sequence (P42568 whole entry, looked up): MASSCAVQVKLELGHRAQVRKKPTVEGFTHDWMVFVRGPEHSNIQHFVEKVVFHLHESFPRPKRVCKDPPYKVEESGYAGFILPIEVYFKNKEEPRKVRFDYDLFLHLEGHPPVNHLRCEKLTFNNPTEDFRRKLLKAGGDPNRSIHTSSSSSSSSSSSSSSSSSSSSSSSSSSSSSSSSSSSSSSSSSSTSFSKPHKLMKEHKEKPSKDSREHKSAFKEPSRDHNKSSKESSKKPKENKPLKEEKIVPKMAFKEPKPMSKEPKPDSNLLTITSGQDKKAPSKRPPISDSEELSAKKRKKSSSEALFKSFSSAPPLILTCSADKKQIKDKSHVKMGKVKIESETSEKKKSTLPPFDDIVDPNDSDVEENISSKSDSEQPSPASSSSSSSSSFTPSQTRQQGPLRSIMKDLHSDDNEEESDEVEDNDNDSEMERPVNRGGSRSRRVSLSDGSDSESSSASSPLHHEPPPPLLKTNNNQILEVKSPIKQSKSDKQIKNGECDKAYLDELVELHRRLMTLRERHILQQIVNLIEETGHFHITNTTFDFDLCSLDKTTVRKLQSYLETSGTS
Beta cell apopt: blocks beta cell apoptosis. protection from apoptosis, % (no concentration beside the values). actives 0.8% (n = 300,000). INS-1E cytokine-induced death, ATP luminescence, 48 h; percent of positive-control rescue, neutral wells zero;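 active means all replicates at 75% or more, or half of them and the mean; inconclusive means half reach 75% but not the mean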;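 further: 0% = cytokine-treated negative control wells and 100% = positive control rescue; higher means more ATP so stronger rescue from cytokine killing; wells of about 40 µL received 100 nL stock; the first replicate is given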
Ecoli rRNA inh: inhibitors of bacterial rRNA selective over humanized ribosomes; E. coli WT GFP vs humanized-ribosome RFP mutants, fluorescence, 24 h; hits give low values; DMSO median 0, no signal -100; GFP signal change (wild-type ribosome), % (test concentration not listed); actives 1.6% (n = 350,000);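 active means significant combined selectivity score with lowered wild-type GFP, culture density cut under 30%, mutant RFP and density less affected; inactive means any of these conditions unmet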; further: one replicate is shown; some compounds called inactive have numbers as strong as hits
Vif A3G: inhibitors of Vif binding to APOBEC3G peptide, primary screen, biochemical, TR-FRET, GST-Vif 1-94, biotin-A3G peptide, dose response retest (AID 1117319); TR-FRET GST-Vif / biotin-A3G peptide binding; higher % means a stronger effect; test concentration not given here; strong numbers were not always called active; one-dose inhibition, %; IC50 in µM for titrated hits; actives 0.57% (n = 260,000);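 active means above the screen mean plus three standard deviations and confirmed in dose response; inconclusive means results disagree or hit not tested in dose response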;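 further: Vif residues 1-94 fused to GST binding biotinylated APOBEC3G peptide 110-148; 0% = full assay without inhibitor and 100% = GST in place of GST-Vif; retest series ran down from 100 µM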
Calb FLC: affects C. albicans growth with fluconazole | C. albicans CaCi-2 (fluconazole-resistant clinical isolate) + fluconazole, Alamar Blue growth, 48 h | growth inhibition, % (test concentration not listed) | actives 0.57% (n = 300,000);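 active means most replicates above 75%; inconclusive means exactly half above 75%; inactive means most below 75%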;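 further: all wells also contain fluconazole at 8 µg/ml as a sub-toxic cotreatment; 0% = median of DMSO wells and 100% = median of geldanamycin control wells; wells of about 8 µL received 7.5 nL stock; the first replicate is given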
T cruzi inh: T. cruzi replication inhibition | T. cruzi beta-gal in NIH3T3, luminescence, 90 h | AID 1885 | inhibition, % (no concentration beside the values) | actives 1.4% (n = 300,000);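 active means mean inhibition across valid replicates above about 55%, limit read from the data; inconclusive means mean below that limit but half or more replicates reach it; inactive means mean below it, under half of replicates reach it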;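 further: signal also drops with host cell toxicity which is not excluded here; 0% = plate median of DMSO wells and 100% = zero luminescence signal; higher percent means less beta-gal luminescence so fewer parasites; stock transfer was 50 nL into about 50 µL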
Ecoli rRNA inh OD600: recorded beside Ecoli rRNA inh, whose call it bears; OD600 change, %; measured here: OD600 growth;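 optical density of the mix in the first replicate; 0 = DMSO median and -100 = no signal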
Ecoli rRNA inh RFP: also measured in Ecoli rRNA inh; calls as there; RFP signal change, %; measured here: RFP humanized mutant strains;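 first replicate; 0 = DMSO median and -100 = no signal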
Starred values were filed as active, the others as inactive; & = joins results of further samples.

What do the screens show for `COc1cc(CCC(=O)NNC(=O)c2ccc(C)cc2)cc(OC)c1OC`?
A1 inh: 0.8; RanGTP-Imp inh: inconclusive; AF4-AF9 inh: -0.7; Beta cell apopt: -3; Ecoli rRNA inh: 9; Calb FLC: 2; T cruzi inh: -16; Ecoli rRNA inh OD600: 1; Ecoli rRNA inh RFP: 3.6

How did COC(=O)c1c(C)[nH]c(C(=O)/C=C/c2ccc(Cl)cc2)c1C do in these assays?
A1 inh: 0.3; RanGTP-Imp inh: -0.6; Beta cell apopt: 7; Calb FLC: 8; T cruzi inh: 27

How did CN(N)c1nc(-c2ccccc2)cc(-c2ccccc2)n1 do in these assays?
A1 inh: -0.5; RanGTP-Imp inh: 7.3; AF4-AF9 inh: -1.1; Beta cell apopt: 6; Ecoli rRNA inh: -13; Calb FLC: 8; T cruzi inh: -5; Ecoli rRNA inh OD600: -19; Ecoli rRNA inh RFP: -2.4

What do the screens show for `Cc1ccsc1C(=O)NCC(C)(C)N1CCOCC1`?
A1 inh: -0.1; AF4-AF9 inh: -1.1; Beta cell apopt: 5; Vif A3G: -4%

How did C/C(=C\c1ccccc1)C(=O)c1c(C)cc(C)[nH]c1=O do in these assays?
A1 inh: -0.1; RanGTP-Imp inh: -0.2; AF4-AF9 inh: -2.8; Beta cell apopt: 5; Ecoli rRNA inh: 1; Calb FLC: inconclusive; T cruzi inh: -22; Ecoli rRNA inh OD600: 1; Ecoli rRNA inh RFP: -1.3

How did Cc1cc(OCCCC(=O)NCCN2C(=O)S/C(=C\c3cccnc3)C2=O)ccc1Cl do in these assays?
A1 inh: -0.1; RanGTP-Imp inh: -2.3; AF4-AF9 inh: -1.3; Beta cell apopt: -4; Ecoli rRNA inh: 5; Calb FLC: -15; T cruzi inh: -22; Ecoli rRNA inh OD600: -1; Ecoli rRNA inh RFP: 0.4

Results for Cc1ccn(CC(=O)O)c(=O)c1 ?
A1 inh: 0.5; RanGTP-Imp inh: 2.1; Beta cell apopt: -3; Vif A3G: 8%; Calb FLC: -15; T cruzi inh: -9

Results for CSc1nnc2c(n1)OC(c1cn(C)c3ccccc13)N(C(C)=O)c1ccccc1-2 (centres undefined) ?
A1 inh: 0.4; RanGTP-Imp inh: 0.8; Beta cell apopt: -8; Vif A3G: 9%; Calb FLC: 13; T cruzi inh: -14

What do the screens show for `O=c1c2c(-c3ccccc3)csc2ncn1/N=C/c1cccc([N+](=O)[O-])c1O`?
A1 inh: -0.1; RanGTP-Imp inh: 0.9; AF4-AF9 inh: 5.9; Beta cell apopt: -6; Ecoli rRNA inh: -11; Vif A3G: -13%; Calb FLC: -3; T cruzi inh: 6; Ecoli rRNA inh OD600: -2; Ecoli rRNA inh RFP: -2.9

What do the screens show for `O=C(/N=C1\NC(=O)C(F)(C(F)(F)F)S1)NC1CCCCC1` (centres undefined)?
A1 inh: 0.2; RanGTP-Imp inh: -1.5; Beta cell apopt: -8; Vif A3G: 17%&2%; Calb FLC: 3; T cruzi inh: 5

Results for COCCn1c(=NC(=O)c2ccc(S(=O)(=O)N3CCCc4ccccc43)cc2)sc2cc(S(C)(=O)=O)ccc21 ?
A1 inh: 0.4; RanGTP-Imp inh: 0.1; Beta cell apopt: -4; Vif A3G: inconclusive; Calb FLC: 2; T cruzi inh: 35

What do the screens show for `COC(=O)c1c(NC(=O)CSc2nnnn2-c2ccccc2)sc2c1CCC(C)C2` (centres undefined)?
A1 inh: 0.1; RanGTP-Imp inh: -0.6; AF4-AF9 inh: -12; Beta cell apopt: -4; Ecoli rRNA inh: 8; Vif A3G: -1%&1%; Calb FLC: 12; T cruzi inh: 30; Ecoli rRNA inh OD600: 3; Ecoli rRNA inh RFP: 2.2

How did O=c1c2cc(NC(=S)NC3CCCC3)ccc2nc2n1CCCCC2 do in these assays?
A1 inh: -0.5; RanGTP-Imp inh: -2.0; AF4-AF9 inh: 0.3; Beta cell apopt: -7; Ecoli rRNA inh: -28; Vif A3G: -6%; Calb FLC: -3; T cruzi inh: 0; Ecoli rRNA inh OD600: -27; Ecoli rRNA inh RFP: -4.1

What do the screens show for `CNc1nc2ccccc2n1CC(=O)c1ccccc1`?
A1 inh: 0.6; RanGTP-Imp inh: 1.7; AF4-AF9 inh: 0.1; Beta cell apopt: -7; Ecoli rRNA inh: 5; Calb FLC: -8; T cruzi inh: -19; Ecoli rRNA inh OD600: 11; Ecoli rRNA inh RFP: 6.8

What do the screens show for `O=C(O)C1=C[C@H](C2CC2)C[C@H](OCCCCO)O1`?
A1 inh: 1.0; RanGTP-Imp inh: 6.8; AF4-AF9 inh: -2.9; Beta cell apopt: -4; Ecoli rRNA inh: 5; Vif A3G: 9%; Calb FLC: 5; T cruzi inh: -9; Ecoli rRNA inh OD600: 13; Ecoli rRNA inh RFP: 7.8

The last two compounds of the part before are carried over, then new ones follow:
What do the screens show for `CNc1nc2ccccc2n1CC(=O)c1ccccc1`?
A1 inh: 0.6; RanGTP-Imp inh: 1.7; AF4-AF9 inh: 0.1; Beta cell apopt: -7; Ecoli rRNA inh: 5; Calb FLC: -8; T cruzi inh: -19; Ecoli rRNA inh OD600: 11; Ecoli rRNA inh RFP: 6.8

What do the screens show for `O=C(O)C1=C[C@H](C2CC2)C[C@H](OCCCCO)O1`?
A1 inh: 1.0; RanGTP-Imp inh: 6.8; AF4-AF9 inh: -2.9; Beta cell apopt: -4; Ecoli rRNA inh: 5; Vif A3G: 9%; Calb FLC: 5; T cruzi inh: -9; Ecoli rRNA inh OD600: 13; Ecoli rRNA inh RFP: 7.8

What do the screens show for `CCC1(C)Cc2c(sc3nc4n(c(=O)c23)CCCS4)CO1` (centres undefined)?
A1 inh: -1.0; RanGTP-Imp inh: -1.2; Beta cell apopt: -5; Calb FLC: 3; T cruzi inh: -15

How did C=CCNC(=O)COC(=O)c1cccnc1Nc1ccccc1F do in these assays?
A1 inh: -1.1; RanGTP-Imp inh: -2.3; AF4-AF9 inh: 1.3; Beta cell apopt: 1; Ecoli rRNA inh: -6; Calb FLC: -11; T cruzi inh: 1; Ecoli rRNA inh OD600: -1; Ecoli rRNA inh RFP: 1.4

Results for O=C(Cc1ccc(Cl)cc1)NCCc1c[nH]c2ccccc12 ?
A1 inh: 0.7; RanGTP-Imp inh: 0.5; AF4-AF9 inh: 1.8; Beta cell apopt: -3; Ecoli rRNA inh: -20; Vif A3G: -6%; Calb FLC: 1; T cruzi inh: -3; Ecoli rRNA inh OD600: -3; Ecoli rRNA inh RFP: 10

How did O=C(c1ccc(Br)cc1)c1cc2ccc(O)cc2oc1=O do in these assays?
A1 inh: -12; RanGTP-Imp inh: 33*; AF4-AF9 inh: 1.6; Beta cell apopt: -1; Ecoli rRNA inh: -33; Vif A3G: 6%; Calb FLC: 10; T cruzi inh: 4; Ecoli rRNA inh OD600: -43; Ecoli rRNA inh RFP: -5.2

Results for COc1ccc(C2/C(=C(/O)c3ccc(C)cc3)C(=O)C(=O)N2c2ccccn2)cc1OC (centres undefined) ?
A1 inh: 0.6; RanGTP-Imp inh: 3.4; AF4-AF9 inh: -2.7; Beta cell apopt: 4; Ecoli rRNA inh: 8; Vif A3G: 25%; Calb FLC: -3; T cruzi inh: 12; Ecoli rRNA inh OD600: 13; Ecoli rRNA inh RFP: -7.7

How did CC(C)(C)c1ccc(C(=O)N/N=C/c2ccc(OCCCF)cc2)cc1 do in these assays?
A1 inh: -0.1; RanGTP-Imp inh: 5.5; AF4-AF9 inh: 0.1; Beta cell apopt: -3; Ecoli rRNA inh: 14; Vif A3G: -2%; Calb FLC: -4; T cruzi inh: 11; Ecoli rRNA inh OD600: 15; Ecoli rRNA inh RFP: 1.2

Results for CCN(Cc1ccccc1)C(=O)c1ccccc1C ?
A1 inh: -0.7; RanGTP-Imp inh: -2.4; Beta cell apopt: -1; Vif A3G: 17%; Calb FLC: -4; T cruzi inh: 15

Results for COc1cc([N+](=O)[O-])cc(/C=N/NC(=O)C(C)Nc2ccccc2C)c1O (centres undefined) ?
A1 inh: 0.2; RanGTP-Imp inh: -2.4; AF4-AF9 inh: 5.4; Beta cell apopt: 17; Ecoli rRNA inh: -20; Vif A3G: 20%; Calb FLC: -6; T cruzi inh: -13; Ecoli rRNA inh OD600: -9; Ecoli rRNA inh RFP: -1.1

What do the screens show for `CCOc1ccc2nc(N3C(=O)/C(=C/c4ccccc4)NC3=S)sc2c1`?
A1 inh: 0.0; RanGTP-Imp inh: -2.3; AF4-AF9 inh: 2.4; Beta cell apopt: 15; Ecoli rRNA inh: -7; Vif A3G: 1%; Calb FLC: 92*; T cruzi inh: 1; Ecoli rRNA inh OD600: -10; Ecoli rRNA inh RFP: -1.3

Results for CN1c2ccccc2N(C)C1(C)c1ccccc1 ?
A1 inh: -1.7; RanGTP-Imp inh: inconclusive; AF4-AF9 inh: 49*; Beta cell apopt: 131*; Ecoli rRNA inh: 15; Vif A3G: inconclusive; Calb FLC: 122*; T cruzi inh: 62*; Ecoli rRNA inh OD600: 9; Ecoli rRNA inh RFP: 18

Results for Cc1cc(-c2nc3cccnc3s2)ccc1NS(=O)(=O)c1ccc2c(c1)OCCO2 ?
A1 inh: 0.0; RanGTP-Imp inh: 71*; AF4-AF9 inh: -6.9; Beta cell apopt: -9; Ecoli rRNA inh: 4; Vif A3G: -7%; Calb FLC: -9; T cruzi inh: -18; Ecoli rRNA inh OD600: -5; Ecoli rRNA inh RFP: 17

Results for O=S(=O)(c1cccc(Cl)c1Cl)N1CCCCC1 ?
A1 inh: 0.4; RanGTP-Imp inh: 0.3; Beta cell apopt: -9; Vif A3G: 6%; Calb FLC: -5; T cruzi inh: 2

Results for O=C1c2ccccc2C(Nc2ccc(S(=O)(=O)N3CCOCC3)cc2)N1c1cccnc1 (centres undefined) ?
A1 inh: 0.7; RanGTP-Imp inh: 4.2; AF4-AF9 inh: 0.9; Beta cell apopt: 2; Ecoli rRNA inh: 0; Vif A3G: 15%; Calb FLC: 0; T cruzi inh: -7; Ecoli rRNA inh OD600: -1; Ecoli rRNA inh RFP: 1.1

Results for CCCCSc1nnc([C@H](C)NC(=O)OC(C)(C)C)o1 ?
A1 inh: 0.9; Beta cell apopt: 2; Vif A3G: 7%; Calb FLC: -15; T cruzi inh: -5

Results for Cc1cccc(C)c1-n1nnnc1C1(Nc2ccccc2)CCCCC1 ?
A1 inh: -0.6; RanGTP-Imp inh: 0.1; Beta cell apopt: 6; Vif A3G: 10%; Calb FLC: 13; T cruzi inh: 27

How did Cc1c(NC(=O)C(C)OC(=O)c2ccc(Cl)nc2)c(=O)n(-c2ccccc2)n1C (centres undefined) do in these assays?
A1 inh: 0.7; RanGTP-Imp inh: 2.4; Beta cell apopt: -6; Vif A3G: 10%; Calb FLC: 2; T cruzi inh: 1

Not all compounds are listed. The share of hits here may be higher or lower than overall.
